# HNF4A DNA FP – change in binding of human HNF4 alpha to DNA; 360,000 compounds, 0.3% hits; HNF4a-FITC DNA binding, fluorescence polarization, 1 h; activity change, % at 10 µM; P41235; in the data active means activity change above about 30%, passing the limit was not always enough;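 further: controls were the assay level and a saturating level of protein; the project sought stronger binding though the title names inhibitors; some compounds called inactive have numbers as strong as hits; positive values seem to mean higher polarization but the record does not say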
# Target sequence (P41235 whole entry, looked up): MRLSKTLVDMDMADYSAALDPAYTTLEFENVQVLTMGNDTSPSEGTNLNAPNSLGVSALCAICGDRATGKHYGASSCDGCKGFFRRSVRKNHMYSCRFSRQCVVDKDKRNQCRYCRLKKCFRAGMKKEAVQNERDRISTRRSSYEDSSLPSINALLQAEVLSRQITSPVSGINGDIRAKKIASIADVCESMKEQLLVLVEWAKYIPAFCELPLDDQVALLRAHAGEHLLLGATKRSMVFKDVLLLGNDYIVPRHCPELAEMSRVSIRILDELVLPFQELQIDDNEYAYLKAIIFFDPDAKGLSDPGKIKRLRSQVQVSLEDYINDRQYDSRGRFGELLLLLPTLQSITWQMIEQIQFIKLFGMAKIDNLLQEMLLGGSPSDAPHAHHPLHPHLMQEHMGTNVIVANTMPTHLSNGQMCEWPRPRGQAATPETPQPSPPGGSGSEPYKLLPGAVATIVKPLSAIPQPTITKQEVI
# FGF22 binding – FGF22 (human) thermal shift binding; 340,000 compounds, 1.5% hits; recombinant FGF22 thermal shift, SYPRO orange fluorescence; percent of sucrose octasulfate shift, DMSO zero; calls only at 9.99 µM; Q9HCT0; AID 651658;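 active means melting point raised past a set limit in the mean and every replicate; three in four hits are not shown here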
# Target sequence (Q9HCT0 whole entry, looked up): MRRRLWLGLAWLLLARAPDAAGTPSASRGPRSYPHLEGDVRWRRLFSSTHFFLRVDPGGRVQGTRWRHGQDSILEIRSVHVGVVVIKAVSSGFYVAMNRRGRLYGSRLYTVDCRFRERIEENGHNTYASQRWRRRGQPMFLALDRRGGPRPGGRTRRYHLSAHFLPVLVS
# Numbers without * were called inactive; i = inactive; / = no result given.
Structure | HNF4A DNA FP | FGF22 binding
C[C@@H]1CCCCO[C@H](CN(C)C(=O)Nc2cccc3ccccc23)[C@@H](C)CN([C@H](C)CO)C(=O)c2cc(NC(=O)c3ccccc3)ccc2O1 | 13.4 | i
C=C(C)Cn1c2ccc(NC(=O)CCc3cccc(Cl)c3)cc2c(=O)n1C | 3.2 | i
CC(C)NC(=O)c1cc(C2CCCCN2C(=O)c2ccc(C#N)cc2)on1 (stereo unspecified) | -4.0 | i
COC(=O)[C@]12CCCCC=C1N(Cc1ccc(Cl)cc1Cl)C(=O)[C@H](CC(=O)NCc1cccc3ccccc13)C2 | 3.1 | i
COc1cccc(CNc2nc(NCc3ccccc3OC)nc3ccsc23)c1 | -0.1 | i
C[C@H]1CCCCO[C@@H](CN(C)S(=O)(=O)c2ccc(F)cc2)[C@@H](C)CN([C@@H](C)CO)C(=O)c2cc(NC(=O)Nc3ccc4c(c3)OCO4)ccc2O1 | -2.6 | i
CCCCN(C=O)c1c(CC)nc2c(OCCC)cccn12 | 0.7 | i
O=C1Nc2ccccc2-n2nnnc2C1N1CCN(CCN2CCOCC2)CC1 (stereo unspecified) | 1.2 | i
O=C1CCC(C(=O)N(CCO)Cc2ccccc2)CN1CCc1cccc(F)c1 (stereo unspecified) | -1.3 | i
CC1(C(=O)Nc2ccc3c(c2)OCO3)Cc2c(-c3cccc(C(F)(F)F)c3)ccnc2O1 (stereo unspecified) | 0.9 | i
COCCn1c(=S)[nH]c2cc(C(=O)NCc3ccc(F)cc3)ccc2c1=O | -4.0 | i
CC(C)(C)C1CCN2CCC[C@](c3ccccc3)(C1)C2OCCCO (stereo partly specified) | 1.1 | i
CCCn1c(SCC(=O)Nc2ccc(S(=O)(=O)N3CCOCC3)cc2)n[nH]c1=O | -0.2 | i
CC(C)Oc1ccc(CN2CCC2(C)C(=O)Nc2cccc(Oc3ccccc3)c2)cc1 (stereo unspecified) | 3.2 | i
Cc1ccc(S(=O)(=O)N2C[C@H]3C(=O)C[C@@H](c4ccc(Cl)cc4)N(S(=O)(=O)c4ccccc4C)[C@H]3C[C@H]2c2cccc(Cl)c2)cc1 | -0.7 | i
C[N+](C)(C)CCN1CCc2ccccc21 | -0.6 | i
O=C(COC(=O)c1ccc(F)cc1F)Nc1ccc2c(c1)OCO2 | -2.8 | i
NC(=O)c1c(N)[nH]c(C(=O)c2ccccc2)c1-c1ccccc1Br | 4.3 | i
C[C@@H]1CN([C@H](C)CO)C(=O)c2c(c3ccccc3n2C)-c2ccccc2CO[C@H]1CN(C)S(=O)(=O)c1cn(C)cn1 | 2.7 | i
Cc1cc(NS(=O)(=O)c2ccc(NC(=O)c3ccc(Cl)nc3)cc2)nc(C)n1 | -4.6 | i
CC(C)[C@H](CO)NC(=O)[C@H]1O[C@@H](n2ccc(N)nc2=O)[C@H](O)[C@@H]1O | 2.8 | i
COc1cc(CNC(=O)c2cc(-c3ccc(F)cc3C)n[nH]2)cc(OC)c1 | 0.4 | i
O=C(NCC1CCOCC1)c1ccc(-c2ccc(F)c(F)c2)c2ccoc12 | -0.2 | i
CC(C)c1cc(Cn2c3ccccc3c(=O)n2C(C)Cn2cc(CCc3ccccc3)nn2)on1 (stereo unspecified) | -3.4 | i
CC(C)(C)c1ccc(-n2ncc3c2CCCC3NC(=O)c2ccco2)cc1 (stereo unspecified) | -3.3 | i
CCOC1=C2[C@@H](CN(S(=O)(=O)c3ccc(C)cc3)[C@H]2c2ccccc2F)[C@H]2C(=O)N(c3ccccc3)C(=O)[C@H]2C1 | -1.9 | i
CC1(C(=O)O)CCCN(C(=O)c2ccc(OC(F)F)cc2)C1 (stereo unspecified) | 0.3 | i
COc1ccc(NC(=O)C2(C)Cc3c(-c4cccc(C(N)=O)c4)ccnc3O2)cn1 (stereo unspecified) | -4.4 | i
CSCCC(NS(=O)(=O)Cc1ccccc1)C(=O)NNc1ccccc1 (stereo unspecified) | 6.7 | i
C#CCN(C[C@@H]1[C@@H](OC(=O)NCc2ccco2)[C@@H](OC(=O)NCc2ccco2)Cn2c(=O)n(CCCCCC)c(=O)n21)S(=O)(=O)c1ccc(C)cc1 | 2.6 | i
CCCC(=O)N1CCC1(C)C(=O)Nc1ccc2c(c1)OCCO2 (stereo unspecified) | 1.7 | i
O=C(CC(NC(=O)OCc1ccccc1)c1nn[nH]n1)OCc1ccccc1 (stereo unspecified) | -2.7 | i
Cc1nnsc1C(=O)N1CCCC1(C)C(=O)O (stereo unspecified) | 2.4 | i
O=C(Nc1cccc(Cl)c1Cl)c1ccco1 | 2.7 | i
COc1ccc(S(=O)(=O)N(C)[C@H]2C[C@H]3c4cc(-c5ccccc5)ccc4CCN3C(=O)[C@H]2[C@H](C)O)cc1 | -3.4 | i
Nc1nc(=O)n(C2CCC(CO)O2)cc1F (stereo unspecified) | 0.5 | i
CCCCN(C)C(=O)c1sc(=O)n(Cc2ccc(Cl)c(Cl)c2)c1C | 3.0 | i
CC(C)S(=O)(=O)N1CCCC(c2cc(C(=O)NCc3ccccc3)no2)C1 (stereo unspecified) | 0.0 | i
CCCCCc1c(Cc2ccccc2)ncn1CCc1ccccc1OC | 3.9 | i
CC(C)(C)NC(=O)C(c1ccncc1)n1c(=O)c(-c2ccco2)nc2ccccc21 (stereo unspecified) | 12.5 | i
CN(C)c1ccc(CC(=O)N2CCCCC2c2cc(C(=O)Nc3cccc4c3CCCC4)no2)cc1 (stereo unspecified) | 2.8 | i
C=C(C)Cn1c2ccc(NC(=O)NCC)cc2c(=O)n1C | -4.5 | i
CCN(CC)C(=O)c1cccc(-c2csc(C(NC(C)=O)c3ccccc3)n2)c1 (stereo unspecified) | 2.5 | i
CCc1nc2ccc(C(=O)NCC3CCCCC3)cn2c1N(CCC(C)C)CCN(C)C | -12.9 | i
CC1=C(C(=O)N(C)C)CC(CC(=O)NC2CCCC2)C(=O)N1Cc1ccc(F)cc1 (stereo unspecified) | 2.8 | i
Nc1cccc(-c2cccc3nncn23)c1 | 4.8 | i
O=C(C[C@H]1CC[C@H]2[C@@H](COC[C@@H](O)CN2S(=O)(=O)c2ccc(F)cc2)O1)N[C@@H]1CCN(Cc2ccccc2)C1 | 0.6 | i
CC1(C)COC(Cc2ccccc2)=N1 | -4.0 | i
CC1(C)CN(C2CCCCC2)C(=O)[C@H]1CC(=O)Nc1ccccc1 | 1.2 | i
CC1(C(=O)NS(=O)(=O)c2ccccc2Cl)CCN1C(=O)C1(c2ccc(Cl)cc2)CCC1 (stereo unspecified) | 5.3 | i
CC1(C(=O)NS(=O)(=O)C2CC2)CCCN(C(=O)c2cccc(OC(F)(F)F)c2)C1 (stereo unspecified) | 3.6 | i
Nc1nonc1-n1nnc(C(=O)N/N=C/c2ccco2)c1CSc1ccc(Cl)cc1 | -3.2 | i
COCCNC(=O)C(=O)NCC1CCCN1S(=O)(=O)c1cccs1 (stereo unspecified) | -4.7 | i
C[C@H]1CCCCO[C@@H](CN(C)S(=O)(=O)c2ccc(Cl)cc2)[C@@H](C)CN([C@@H](C)CO)C(=O)c2cc(NS(=O)(=O)c3ccccc3)ccc2O1 | 2.2 | i
Cc1ccc(CNC(=O)C2(C)CCN2C(=O)Cc2ccc(C(C)(C)C)cc2)cc1 (stereo unspecified) | -3.7 | i
COc1ncnc2c1ncn2CCCNCC(c1ccccc1)c1ccccc1 | 3.1 | i

# Carrying on:
Structure | HNF4A DNA FP | FGF22 binding
CN1CCN(c2ncnc3c2ncn3[C@H]2CN(Cc3ccc(Cl)cc3)C[C@@H](CO)O2)CC1 | -1.3 | i
COc1ccccc1C(=O)Nc1nnc([C@H]2C[C@H](O)[C@@H](CO)O2)s1 | -9.0 | i
O=C1NC[C@H](CCCCN2C[C@H](Cc3ccccc3)N(CCC3CCCCC3)C(=O)C2=O)N(Cc2ccccc2)C1=O | -1.1 | i
C[C@@H]1CCCCO[C@@H](CN(C)C(=O)c2ccccc2)[C@@H](C)CN([C@H](C)CO)C(=O)c2cc(N(C)C)ccc2O1 | 6.4 | i
O=c1cc(CN2CCN(c3ccccc3F)CC2)c2ccccc2o1 | -3.9 | i
COc1ccc(-c2cc3c(o2)CCCC3OCCN2CCOCC2)cc1 (stereo unspecified) | 5.5 | i
Nc1nc2c(ncn2[C@@H]2O[C@H](CNCc3ccc4ncccc4c3)[C@@H](O)[C@H]2O)c(=O)[nH]1 | 0.9 | i
Cc1ccccc1NC(=O)Cc1nc(COC(=O)C(C)(C)Oc2ccc(Cl)cc2)cs1 | 1.4 | i
CN(CC(=O)Nc1cccc(F)c1)C(=O)Cc1ccsc1 | 1.7 | i
CCOC1=C2CN(S(=O)(=O)c3ccc(C)cc3)[C@H](c3ccccc3)C[C@@H]2N(S(=O)(=O)c2ccc(Br)cc2)[C@H](c2ccccc2)C1 | 6.0 | /
COc1ccccc1N1CCN(C(=O)c2cc(-c3ccccc3)nc3c2cnn3C(C)C)CC1 | 0.5 | i
Oc1cccc(-c2ccc3nccn3c2)c1 | 3.5 | i
COc1ccc(S(=O)(=O)N(C)C[C@H]2OCc3cnnn3CCCC(=O)N([C@H](C)CO)C[C@@H]2C)cc1 | -3.3 | i
O=S1(=O)CC(N2CCN(CC3CC3)CC2)CN1Cc1ccccc1 (stereo unspecified) | -1.1 | i
C[C@@H]1CN([C@@H](C)CO)C(=O)CCCn2nncc2CO[C@@H]1CN(C)C(=O)Nc1ccc(N2CCN(C)CC2)cc1 | -0.1 | i
CCCc1c(C(=O)N/N=C/c2ccc(-c3ccccc3)cc2)nnn1-c1nonc1N | 2.5 | i
COC(=O)c1ccc(CNC(=O)CN2C(=O)NC(Cc3ccccc3)(c3ccccc3)C2=O)cc1 (stereo unspecified) | 8.0 | i
C[C@H](CO)N1C[C@H](C)[C@@H](CN(C)Cc2ccc3c(c2)OCO3)Oc2cc(Br)ccc2S1(=O)=O | 0.7 | i
O=C(CSc1nnc(COc2ccc(Cl)cc2)o1)N(c1ccccc1)C1CCS(=O)(=O)C1 (stereo unspecified) | 1.7 | i
CC1(C(=O)NS(=O)(=O)C2CC2)CCCN(C(=O)c2cccc(Cl)c2)C1 (stereo unspecified) | 2.6 | i
CCCN1CCN(C(=O)c2ccc3[nH]c(C)c(C)c3c2)CC1 | 4.2 | i
COCCCN1C(=O)C(CC(=O)NCc2ccco2)CC(C(=O)N(C)C)=C1C (stereo unspecified) | -1.2 | i
Cc1cc(F)ccc1C(O)c1ncc(-c2ccccc2C(F)(F)F)[nH]1 (stereo unspecified) | 1.4 | i
COc1ccc(/C=C/CN2CCC(C(=O)NC(c3ccc(F)cc3)c3ccc4ccccc4n3)CC2)cc1 (stereo unspecified) | 1.2 | i

# Part of the list above in another layout.
Cc1cc(F)ccc1C(O)c1ncc(-c2ccccc2C(F)(F)F)[nH]1 (stereo unspecified)
  HNF4A DNA FP: 1.4
  FGF22 binding: i
CC1(C(=O)NS(=O)(=O)C2CC2)CCCN(C(=O)c2cccc(Cl)c2)C1 (stereo unspecified)
  HNF4A DNA FP: 2.6
  FGF22 binding: i
COc1ccc(/C=C/CN2CCC(C(=O)NC(c3ccc(F)cc3)c3ccc4ccccc4n3)CC2)cc1 (stereo unspecified)
  HNF4A DNA FP: 1.2
  FGF22 binding: i
COC(=O)c1ccc(CNC(=O)CN2C(=O)NC(Cc3ccccc3)(c3ccccc3)C2=O)cc1 (stereo unspecified)
  HNF4A DNA FP: 8.0
  FGF22 binding: i

# Entries listed so far containing a COOH group (2):
Structure | HNF4A DNA FP | FGF22 binding
CC1(C(=O)O)CCCN(C(=O)c2ccc(OC(F)F)cc2)C1 (stereo unspecified) | 0.3 | i
Cc1nnsc1C(=O)N1CCCC1(C)C(=O)O (stereo unspecified) | 2.4 | i

# (next part)
Structure | HNF4A DNA FP | FGF22 binding
CN(C)CCNC(=O)c1ccc2nc([C@@H]3O[C@H](CO)[C@H](O)[C@H](O)[C@H]3O)[nH]c2c1 | -1.0 | i
CC(C)(C)c1ccc(CC(=O)N2CCC2(C)C(=O)Nc2cccc3c2CCCC3)cc1 (stereo unspecified) | 0.6 | i
CC1(C(=O)NS(=O)(=O)c2ccc(C#N)cc2)CCN1C(=O)C1CCCCC1 (stereo unspecified) | -1.0 | i
COc1ccc(CCCNC(=O)C2(C)Cc3c(-c4cccc(C(N)=O)c4)ccnc3O2)cc1 (stereo unspecified) | 1.9 | i
CC(C(=O)O)(C1CCCCC1)C1(O)CCCCC1 (stereo unspecified) | 2.3 | i
C[C@@H]1CN([C@@H](C)CO)C(=O)CCCn2nncc2CO[C@@H]1CN(C)C(=O)Nc1ccccc1C(F)(F)F | -3.1 | i
O=C(Nc1cccc(C(F)(F)F)c1)Nc1nnc([C@H]2C[C@H](O)[C@@H](CO)O2)s1 | 3.7 | i
CCOC(=O)C1=CCC(c2ccccc2)N(S(=O)(=O)c2ccccc2C)C1 (stereo unspecified) | 4.4 | /
COc1ccc(CNC(=O)C2Cc3c(-c4ccccc4)ccnc3O2)cc1OC (stereo unspecified) | 0.7 | i
NC(=O)c1ccc(Nc2nc(C(N)c3ccccc3Cl)cs2)cc1 (stereo unspecified) | 4.1 | i
NS(=O)(=O)c1ccc(NC(=O)CN(C(=O)C(F)(F)F)C2CCCC2)cc1 | 2.9 | i
COc1ccc(NC(=O)Nc2ccc3c(c2)C(=O)N([C@H](C)CO)C[C@H](C)[C@@H](CN(C)Cc2ccc(Cl)c(Cl)c2)OCCCC[C@@H](C)O3)cc1 | -0.7 | i
COCCNC(=O)C1CCCN(C(=O)c2ccc3ccccc3n2)CC1 (stereo unspecified) | 5.3 | i
N#Cc1ccc(NC(=S)NC(=O)C2CC2)cc1 | -5.8 | i
CC(=O)c1sc(Nc2ccc(Oc3ccccc3)cc2)nc1C | -2.2 | i
CC1(C(=O)NS(=O)(=O)c2ccc(F)cc2F)CCN1C(=O)CC1CCCCC1 (stereo unspecified) | -1.8 | i

# The list is partial; the hit share may differ from the screen's.
